Assay outcomes: PubChem, National Center for Advancing Translational Sciences (NCATS)
PINK1 modulator: A Quantitative High throughput Screen to Identify Chemical Modulators of PINK1 Expression; PINK1 immunofluorescence, high-content cytometry, 24 h; Potency, µM (doses to about 76.6 µM), for the others: at the top dose activation (PINK1 increase), actives largely listed as activators; hit rate 0.2% among 410,000; active = well fitted activation curve with a large enough effect; inconclusive = small, poorly fitted or top-dose-only effect; inactive = flat fitted curve, though single readings scatter; cell line not stated here;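 also: % of control where 0% means no effect; nearly all actives have a fitted effect of over 65% in size; a mitochondrial uncoupler was the plate control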
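Compound titrations (5 concentrations, 24 h) on a stable cell line; DMSO and CCCP controls. Endpoint: fixed-cell PINK1 immunofluorescence with mitochondrial, cell and nuclear markers, scanned by microplate cytometer.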
ClpP mod: qHTS Assay for Activators of ClpP; Potency, µM (doses to about 57.5 µM), inactives show at the top dose activity change, negative = active; hit rate 1.9% among 340,000; purified B. subtilis ClpP, FRET peptide cleavage, 20 min; active = well fitted falling curve with a large enough effect; inconclusive = small, poorly fitted or top-dose-only effect; inactive = no such curve, though single readings can be large or run the other way; also: the source files actives as falling curves though it sought activators and does not explain the sign; nearly all actives have a fitted effect of over 65% in size; many hits overshoot -100%
Target sequence (P80244 whole entry, looked up): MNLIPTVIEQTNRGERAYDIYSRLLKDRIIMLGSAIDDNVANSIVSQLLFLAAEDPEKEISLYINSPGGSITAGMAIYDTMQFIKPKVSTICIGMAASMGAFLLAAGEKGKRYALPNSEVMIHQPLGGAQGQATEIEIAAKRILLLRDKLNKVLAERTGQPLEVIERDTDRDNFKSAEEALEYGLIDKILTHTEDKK
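Buffer: 100 mM Tris/HCl pH8, 100 mM KCl, 0.05% low protease BSA, 2.5% glycerol, 0.01% Tween-20. ClpP 10 microg/mL final; 20 min RT; delta FRET normalized to ADEP and DMSO controls.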
An asterisk follows results filed as active; u = inconclusive. Potency is read from the fitted curve at half-maximal effect.

SMILES	PINK1 modulator	ClpP mod
Cc1ccc2onc(CNC(=O)N3CCN(c4cccc(C)c4C)CC3)c2c1	-0.6%	-0.2%
CCOc1cccc(CC(=O)N2CCc3c([nH]c4ccccc34)C2c2ccc(F)cc2)c1OCC (stereo not given)	1.2%	-3.4%
CCc1ccc(-n2c(=O)c3c(C)c(C(=O)N(C)C)sc3n(Cc3ccccc3C#N)c2=O)cc1	0.0%	0.9%
CC(C)(C)C(=O)Nc1cc(-c2cccc(Br)c2)nn1-c1ccccc1	2.0%	-0.8%
COc1cccc(CNC(=O)c2cccc(N3CCCS3(=O)=O)c2)c1	0.6%	-6.7%
CC(=O)c1ccc(NC(=O)c2cc(C)nc3c2c(C)nn3-c2ccc(C)cc2)cc1	7.4%	160.3%
CCOC(=O)c1c(NC(=O)Cc2coc3cc(C)cc(C)c23)sc2c1CCC2	0.8%	-5.0%
CCOC(=O)c1c(S(=O)(=O)N2CCCC(C(=O)Nc3cccc(CC)c3)C2)c(C)n(CC)c1C (stereo not given)	6.6%	-2.2%
CCc1ccc(NC(=O)c2sc(-n3nc(C)c(Cc4ccc(OC)cc4)c3C)nc2C)cc1	0.6%	-5.3%
O=C(CN(c1cc(C(F)(F)F)ccc1Cl)S(=O)(=O)c1ccccc1)NCCc1ccccc1	2.1%	-1.6%
O=C(Nc1cccc(C(=O)OCc2cc(=O)n3ccsc3n2)c1)c1ccc(F)cc1	-0.8%	0.0%
COc1ccc(Br)c(C(=O)Nc2cc3c(cc2N2CCCCC2)n(C)c(=O)c(=O)n3C)c1	-0.7%	u
Cc1ccc(-c2cc(C(=O)NCc3cnn(C)c3C)c3ccccc3n2)cc1C	5.0%	4.4%
COc1ccc(Cl)cc1NC(=O)c1ncn(-c2ccccc2)n1	-1.4%	3.9%
CCc1nn(CC(=O)NCC(C)c2ccccc2)c(=O)c2cc3occc3n12 (stereo not given)	1.6%	-0.7%
CCSc1nnc2c(n1)OC(c1ccc(OCC(=O)O)cc1)Nc1ccccc1-2 (stereo not given)	3.7%	2.5%
O=C(CN1C(=O)CCc2cc(S(=O)(=O)N3CCCCC3)ccc21)NCc1ccc(Cl)cc1	1.1%	21.7%
COc1cc(NC(=O)c2cc(-c3cccc(OC)c3)n[nH]2)cc(OC)c1	1.8%	-6.9%
CCN(CCCNC(=O)c1cc2cc3cc(OC)ccc3nc2s1)c1ccccc1	1.5%	-0.7%
Cc1nn(CCCC(=O)NCc2ccc(OC(C)C)cc2)c(=O)c2c1sc1ccccc12	1.7%	-4.2%
CCn1c(CNC(=O)C23CC4CC(CC(C4)C2)C3)nnc1SCC(=O)Nc1ccccc1	0.0%	-0.3%
Cc1cc(C)c(NC(=O)c2ccc3nc(C(C)C)oc3c2)c(C)c1	1.1%	-1.0%
CN(C)/C=C1\C=Cc2ccccc21	0.5%	-4.9%
O=C(CSc1nc2c([nH]c3ccccc32)c(=O)n1-c1ccc(F)cc1)NCC1CCCO1 (stereo not given)	-0.5%	22.4µM*
Cn1nc(-c2ccccc2F)c2cc(C(=O)NCCc3ccc(Cl)cc3)sc21	0.7%	4.7%

The closing 2 entries of the part above are carried over, then new ones follow.
SMILES	PINK1 modulator	ClpP mod
O=C(CSc1nc2c([nH]c3ccccc32)c(=O)n1-c1ccc(F)cc1)NCC1CCCO1 (stereo not given)	-0.5%	22.4µM*
Cn1nc(-c2ccccc2F)c2cc(C(=O)NCCc3ccc(Cl)cc3)sc21	0.7%	4.7%
CCOCCCn1c(=N)c(C(=O)NCc2cccnc2)cc2c(=O)n3cc(C)ccc3nc21	1.7%	4.0%
Cc1coc2cc3oc(=O)c(CC(=O)N4CCCCC4)c(C)c3cc12	0.8%	-8.1%
CCOc1ccccc1N(CC)C(=O)c1noc2c1COc1ccc(C)cc1-2	3.6%	-5.2%
Cc1ccc(-n2nc(CO)c(C(=O)NC(C)c3ccccc3)n2)cc1C (stereo not given)	2.1%	35.5µM*
CCCN(CCC)CCCNC(=O)c1nn(C)c2c1CS(=O)(=O)c1ccccc1-2	-0.7%	-16.5%
CCOc1ccc(NC(=O)CSc2ccc(-c3sc(-c4ccccc4)nc3C)nn2)cc1	1.6%	-7.5%
Cc1nc2ccccc2c(=O)n1-c1ccc(NC(=O)c2ccccc2[N+](=O)[O-])cc1	-1.3%	-2.1%
Fc1ccc(Cc2cn3cc(-c4ccc(Cl)cc4)nc3s2)cc1	2.9%	-1.9%
Cc1c(CNC2CCCCC2)c(C(=O)O)c(C)n1Cc1ccccc1F	-0.7%	0.4%
Cc1ccc(C(=O)c2cn(Cc3cc(C)ccc3C)c3nc(C)ccc3c2=O)cc1	u	1.2%
Cc1cccc(Cn2c(CN3CCC(C(=O)NCc4cccnc4)CC3)cc3ccccc32)c1	u	-1.2%
COc1ccccc1NC(=O)c1ccc2oc(=O)c(S(=O)(=O)c3ccccc3)cc2c1	0.3%	-20.7%
Cc1cccc(C(C)C)c1NC(=O)C1CCCN1S(=O)(=O)c1cccc2nsnc12 (stereo not given)	1.9%	-6.7%
CC(C)OCCCn1c(SCc2ccccc2Cl)nc2c(sc3ccccc32)c1=O	1.2%	-2.6%
COc1ccc(CNC(=O)C2CCN(S(=O)(=O)c3ccc4c(ccn4C)c3)CC2)cc1	0.8%	-17.5%
COCCCNC(=O)c1ccc(NC(=O)N2CCCCc3ccccc32)cc1	0.0%	0.4%
O=C1COc2cc(S(=O)(=O)CCC(=O)NC3CCCCC3)c(Cl)cc2N1	-1.1%	-2.7%
CSc1ccc(CCNC(=O)CN2C(=O)COc3ccc(S(=O)(=O)N4CCCC4)cc32)cc1	3.3%	-0.2%
O=C1NC[C@@H](CCCCN2C[C@H](Cc3ccccc3)N(CCC3CCCCC3)C(=O)C2=O)N(CCc2ccc(O)cc2)C1=O	0.5%	1.3%
CN(CC(=O)Nc1cccc(C#N)c1)S(=O)(=O)c1cc2c(cc1Cl)NC(=O)CO2	u	0.3%
CCN(CC)CCCNC(=O)CCCn1ncn2c(cc3occc32)c1=O	0.4%	-0.8%
Cc1ccc(C)c(Cn2c(SCC(=O)N(C)Cc3ccccc3)nc3ccccc32)c1	0.1%	-3.4%
COc1ccc(Nc2cc(C)c3cc(NC(=O)Cc4ccc(Cl)cc4)ccc3n2)cc1	0.4%	u
O=C(CCn1c(=O)c2ccccc2n(CC(=O)Nc2ccc(F)cc2)c1=O)NCCc1ccccc1	4.4%	-4.6%
CCN(CCCNC(=O)c1ccc(Sc2ccc(Cl)cc2)c(NC(C)=O)c1)c1ccccc1	1.0%	-11.5%

Five entries out of the list, ordered by SMILES length, ascending.
SMILES	PINK1 modulator	ClpP mod
Fc1ccc(Cc2cn3cc(-c4ccc(Cl)cc4)nc3s2)cc1	2.9%	-1.9%
Cc1coc2cc3oc(=O)c(CC(=O)N4CCCCC4)c(C)c3cc12	0.8%	-8.1%
O=C1COc2cc(S(=O)(=O)CCC(=O)NC3CCCCC3)c(Cl)cc2N1	-1.1%	-2.7%
CCN(CCCNC(=O)c1ccc(Sc2ccc(Cl)cc2)c(NC(C)=O)c1)c1ccccc1	1.0%	-11.5%
Cc1nc2ccccc2c(=O)n1-c1ccc(NC(=O)c2ccccc2[N+](=O)[O-])cc1	-1.3%	-2.1%

Remaining list, next part:
SMILES	PINK1 modulator	ClpP mod
Cc1nn(C(=O)c2cccc(F)c2)c(C)c1S(=O)(=O)N1CCCCCC1	-0.2%	1.0%
CCN(C)C1CN(Cc2cn(Cc3ccc(OC)cc3)nn2)S(=O)(=O)C1 (stereo not given)	0.3%	-0.9%
Cc1cn(C)c(CC(=O)NCc2ccc(F)cc2)c1C(=O)O	-0.2%	-2.3%
CCCOc1ccc(CNC(=O)c2oc3ccc4c(c3c2C)C(=O)CC(C)(CC)O4)cc1 (stereo not given)	0.7%	-5.6%
COc1cc2nc(N3CCCN(C)CC3)nc(OC3CCN(C)CC3)c2cc1OC	-0.8%	4.1%
CCOc1ccc(NC(=O)CC2C(=O)N(c3ccc(C)cc3)C(=O)N2Cc2ccc(OC)cc2)cc1 (stereo not given)	-0.3%	-1.5%
CCOCCCn1c(SCC(=O)Nc2ccc(OC)cc2OC)nc2ccccc2c1=O	-0.2%	-1.7%
Cc1ccc(NC(=O)Nc2nnc(N(C)Cc3ccccc3)s2)cc1	-0.4%	1.4%
Cn1ncc2c(NCc3cccc(Cl)c3)ncnc21	4.1%	-0.6%
CCN1CCN(c2ncc3c(n2)CCN(Cc2ccc(Br)s2)C3)CC1	5.6%	1.1%
CN(C)c1ccc(-c2noc(C3CC(=O)N(c4ccc5c(c4)OCCO5)C3)n2)cc1 (stereo not given)	10.1%	0.4%
Cc1cc(C)c(S(=O)(=O)NCCc2sc3nc(-c4ccc(F)cc4)nn3c2C)c(C)c1	-1.0%	-0.8%
CCc1ccc(-n2c(=O)c3c4c(sc3n(CC(=O)NCCCOC)c2=O)CCC4)cc1	-0.4%	0.1%
CCc1ccc(-c2[nH]nc3nc(-c4ccc(OC)cc4)cc(C(=O)NCCc4ccc(OC)c(OC)c4)c23)cc1	5.3%	3.7%
Cc1cc(C)cc(NC(=O)CSc2oc(-c3ccccc3)nc2S(=O)(=O)c2ccccc2)c1	0.9%	u
CCC1=Nc2cc(C(=O)NCc3ccc(C)cc3)ccc2Sc2ccc(C)cc21	1.1%	0.0%
COCCCNC(=O)C1CCN(c2cc(C)nc3c(-c4ccc(OC)c(OC)c4)c(C)nn23)CC1	3.3%	0.8%
COc1ccc(Cn2c(SCC(=O)N3CCN(c4ccc(F)cc4)CC3)nc3ccccc32)cc1	1.5%	-7.0%
COc1cc(C2Nc3ccccc3C(=O)N2Cc2ccccc2)ccc1OCc1ccccc1 (stereo not given)	1.8%	3.7%
Cc1ccc(N(CC(=O)NCCc2ccc(Cl)cc2)S(=O)(=O)N(C)C)cc1	1.0%	0.6%
CCS(=O)(=O)N1CC(=O)N(c2cc(C)cc(C)c2)C(C)(C(=O)NC2CCCCC2)C1 (stereo not given)	-0.9%	0.7%
CC(=O)c1cccc(NC(=O)c2cc(-c3ccc4c(c3)OCCO4)on2)c1	0.2%	17.3%
O=C(NCc1ccc(F)cc1)c1cc2c(=O)n3ccccc3nc2s1	3.9%	4.0%
CCN1CCN(Cc2c(O)ccc3cc(-c4ccc(OC)cc4)c(=O)oc23)CC1	0.6%	4.4%
CCCCCCCCN1C(=O)[C@H](CC(=O)NCc2cccc(C(F)(F)F)c2)C[C@@]2(C(=O)OCC)CCCC=C12	u	2.1%

Arranged by value in PINK1 modulator (highest first): three of the compounds above
compound | PINK1 modulator
COCCCNC(=O)C1CCN(c2cc(C)nc3c(-c4ccc(OC)c(OC)c4)c(C)nn23)CC1 | 3.3%
CCC1=Nc2cc(C(=O)NCc3ccc(C)cc3)ccc2Sc2ccc(C)cc21 | 1.1%
CCS(=O)(=O)N1CC(=O)N(c2cc(C)cc(C)c2)C(C)(C(=O)NC2CCCCC2)C1 (stereo not given) | -0.9%

(further entries)
SMILES	PINK1 modulator	ClpP mod
COc1cc(NS(=O)(=O)c2cc(Br)cc3c2N(C(C)=O)C(C)C3)cc(OC)c1 (stereo not given)	-1.4%	-0.4%
CCOC(=O)c1cccc(NC(=O)C(CC(C)C)N2Cc3ccccc3C2=O)c1 (stereo not given)	1.7%	-2.6%
Cc1c2cnn(CC(=O)O)c(=O)c2c(C)n1Cc1cccc(Cl)c1	0.2%	-20.8%
COc1cc(-c2ccc(N3C(c4ccsc4)=Cc4ccccc4C3CC(C)=O)cc2)cc(OC)c1OC (stereo not given)	1.6%	2.6%
COc1cc2c(cc1NC(=O)COc1ccc(Cl)cc1Br)oc1ccccc12	0.6%	-18.7%
O=C(c1cc2cc3ccc(Cl)cc3nc2o1)N1CCN(c2cccc(Cl)c2)CC1	0.0%	-6.6%
O=C(CCc1cn(Cc2ccccc2F)c2ccccc12)NCc1ccc(Cl)cc1	-0.6%	u
Cc1ccc(S(=O)(=O)N(CC(=O)Nc2ccc(Cl)cc2Cl)c2ccccc2C)cc1	11.8%	-0.5%
Cc1ccc(NC(=O)C2CCN(C(=O)c3sc4nc[nH]c(=O)c4c3C)CC2)cc1F	-0.2%	-2.9%
NCCCN(Cc1ccc(Cl)c(Cl)c1)c1ccc(Br)cn1	0.3%	-3.7%
Cc1cc(Br)ccc1NC(=O)C1CCN(S(=O)(=O)c2ccc(Br)s2)CC1	0.9%	-0.3%
Cc1ccc(C)c(NC(=O)CN2C(=O)c3cccnc3Oc3ccc(C)cc32)c1	0.5%	-0.9%
CCCCOc1ccccc1C1CC(=O)Nc2ccc3ccccc3c21 (stereo not given)	2.3%	-9.6%
O=C(Nc1ccc(F)cc1)c1csc2c1CCCCC2	5.6%	-3.6%
Cc1cc(CN2CCN(c3ccc(F)cc3)CC2)cs1	1.2%	-1.5%
CC(=O)Nc1ccc(NC(=O)COC(=O)c2ccccc2OCc2cccc(Br)c2)cc1	1.0%	-4.3%
CCn1ccc2cc(S(=O)(=O)N3CCCN(C(=O)NCC(=O)OC)CC3)ccc21	-1.1%	-0.4%
CC(C)OCCCNC(=O)c1cc2c(-c3ccc(Cl)cc3)nn(C)c2s1	0.4%	4.4%
Cc1cccc(N2CCN(C(=O)c3cc4c(=O)n(C)c5ccccc5c4s3)CC2C)c1 (stereo not given)	0.9%	1.8%
CC1CCN(S(=O)(=O)c2ccc3c(c2)N(CC(=O)NCCc2ccccc2)C(=O)CO3)CC1	0.3%	-0.6%

Not all compounds are listed, so the mix of outcomes need not match the whole.
